TRPML1 ag = human mucolipin-1 channel agonism; 410,000 compounds, 0.12% hits; AID 624414; Q9GZU1; activation, % (test concentration not listed); TRPML1-expressing cells, Ca2+ dye fluorescence, FDSS; host cell line not named in the record; reference of the full effect not given here; in the data active = activation above about 50%; inconclusive = about 30% to 50%; inactive = below about 30%; further: 0% is about no effect; the text of the record puts the active cut at 80%
Target sequence (Q9GZU1 whole entry, looked up): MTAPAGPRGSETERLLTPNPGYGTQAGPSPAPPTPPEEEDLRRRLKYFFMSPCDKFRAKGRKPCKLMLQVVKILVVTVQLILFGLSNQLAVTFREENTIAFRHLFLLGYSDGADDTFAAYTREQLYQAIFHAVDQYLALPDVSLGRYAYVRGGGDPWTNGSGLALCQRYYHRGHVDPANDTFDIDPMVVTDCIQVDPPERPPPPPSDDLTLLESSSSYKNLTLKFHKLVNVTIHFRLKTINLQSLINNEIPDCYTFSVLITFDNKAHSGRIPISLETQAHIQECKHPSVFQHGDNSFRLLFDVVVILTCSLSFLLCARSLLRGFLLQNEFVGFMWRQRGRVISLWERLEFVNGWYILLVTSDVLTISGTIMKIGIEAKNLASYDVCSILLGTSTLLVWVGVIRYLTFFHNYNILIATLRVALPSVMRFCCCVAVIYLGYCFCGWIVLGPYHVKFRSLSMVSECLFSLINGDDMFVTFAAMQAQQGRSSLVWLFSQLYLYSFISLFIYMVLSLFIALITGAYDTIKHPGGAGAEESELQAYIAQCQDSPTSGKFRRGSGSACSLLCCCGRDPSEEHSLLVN
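Tet-induced TRPML1-DL cells, 1,500 per well, cultured overnight, were loaded with a no-wash Ca2+ dye for 45–90 min. Calcium fluorescence was recorded on the FDSS for 110 s after compound addition, before the EC80 agonist (4 uM 54-4) was added.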
ClpP mod = qHTS Assay for Activators of ClpP | ATP-dependent Clp protease proteolytic subunit (Bacillus subtilis (strain 168)), P80244 | purified B. subtilis ClpP, FRET peptide cleavage, 20 min | Potency, µM (titrated, usually from 57.5 µM), for inactives: at the top dose activity change, negative = active | 340,000 compounds, 1.9% hits | AID 651965, 2013; active = well fitted falling curve with a large enough effect; inconclusive = small, poorly fitted or top-dose-only effect; inactive = no such curve, though single readings can be large or run the other way; further: potency means the concentration at half of the fitted maximal effect; the source files actives as falling curves though it sought activators and does not explain the sign; nearly all actives have a fitted effect of over 65% in size; many hits overshoot -100%
Target sequence (P80244 whole entry, looked up): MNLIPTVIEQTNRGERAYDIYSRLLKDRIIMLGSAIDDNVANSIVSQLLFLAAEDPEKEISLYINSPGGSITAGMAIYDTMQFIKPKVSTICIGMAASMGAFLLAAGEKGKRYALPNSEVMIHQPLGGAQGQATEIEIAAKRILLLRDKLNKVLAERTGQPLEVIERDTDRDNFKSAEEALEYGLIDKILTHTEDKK
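Purified B. subtilis ClpP, 10 microg/mL final in Tris/HCl pH8 with KCl, BSA, glycerol and Tween-20, cleaved an Abz/nitrotyrosine-quenched decapeptide. Fluorescence (ex 320, em 430) was read at 0 and 20 min at room temperature. Delta was normalized to 5.8 microM ADEP and DMSO/no-enzyme controls.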
TRPV1 PAM = potentiators of human vanilloid receptor 1 (TRPV1) | TRPV1-expressing cells, Fluo-8 calcium influx, capsaicin EC20 potentiation; host cell line not named in the record; control for the full effect not named in the record | 320,000 compounds, 0.02% hits | AID 540277 | potentiation, % at 8.33 µM; active means potentiation above 80%; inconclusive means 30% to 80%; inactive means below 30%; further: 0% is about no effect
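Cells expressing TRPV1 were dye-loaded with Fluo-8 and read kinetically: 10 s baseline, 3 min after compound (agonist portion), then 2 min after EC20 capsaicin (allosteric enhancer portion). Calcium-bound dye fluorescence at 480/520 nm.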
Menin-MLL FL inh = menin-MLL binding inhibition, fluorescein peptide; FP activity change, % at 61.4 µM; 290,000 tested, under 10 active; Fluorescence polarization, fluorescein-MLL peptide displacement from menin; AID 1766; inconclusive = falling polarisation curve, or a change in total fluorescence; inactive = total fluorescence flat and polarisation flat or rising; no compound was filed as active; the % refers to the polarisation; negative = inhibition;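 further: % of control where 0% means no effect; inhibitors lower the polarisation; unlabelled MLL peptide was the positive control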
Sfp PPTase inh = Sfp phosphopantetheinyl transferase inhibition. Q9F4F7. 310,000 compounds, 3.5% hits. AID 1490. Potency, µM, for the others: max response, negative = inhibition, most hits filed as inhibitors. Biochemical Sfp PPTase activity, qHTS; active means well fitted inhibition curve with a large enough effect; inconclusive means small, poorly fitted or top-dose-only effect, or another doubt; inactive means no such curve, though single readings can be large or run the other way;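 further: the enzyme is Sfp with the accession as filed and its product quenches rhodamine fluorescence; potency means the concentration at half of the fitted maximal effect; 0% = enzyme reaction without inhibitor and -100% = no enzyme wells; top concentration of the series not given in the record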
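Fluorescence-quenching assay with 15 nM Sfp, 5 uM rhodamine-CoA and 12.5 uM BHQ-2-labelled ybbR peptide in pH 7.6 Hepes/MgCl2 buffer. Enzyme was pre-incubated with compound for 15 min at room temperature. Rate was taken from the 30-min fluorescence change (525/598 nm).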
TRPML1 inh = human mucolipin-1 channel inhibition; Q9GZU1; TRPML1-inducible cells, Ca2+ dye fluorescence, FDSS; hits give low values; inhibition of EC80 agonist-evoked calcium signal; 390,000 compounds, 0.02% hits; activity change, negative = inhibition, % (no concentration beside the values); AID 624415; in the data active means activity change below about -50%; inconclusive means about -30% to -50%; inactive means above about -30%;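 further: stimulus is agonist 54-4 at its EC80 concentration; on the % scale 0 is the no-effect control and ±100 the full control effect; compound concentration not given in the record; the text of the record puts the active cut at -80%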
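Calcium fluorescence in TRPML1-DL cells induced overnight with Tet: a 110 s read after compound pin addition, then a 110 s antagonist read after challenge with 54-4 at 4 uM final (EC80).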
PINK1 modulator = PINK1 expression modulation; Potency, µM (titrated, usually from 76.6 µM), inactives show top-dose activation (PINK1 increase), most hits filed as activators; PINK1 immunofluorescence, high-content cytometry, 24 h; 410,000 compounds, 0.2% hits; active = well fitted activation curve with a large enough effect; inconclusive = small, poorly fitted or top-dose-only effect; inactive = flat fitted curve, though single readings scatter; cell line not stated here;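 further: potency means the concentration at half of the fitted maximal effect; % of control where 0% means no effect; nearly all actives have a fitted effect of over 65% in size; a mitochondrial uncoupler was the plate control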
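PINK1 protein level read as immunofluorescence by microplate cytometer in a fixed, stained stable cell line after 24 h exposure to five compound concentrations, with CCCP as control.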
An asterisk follows results filed as active; ? = inconclusive; . = no result given; & = joins results of further samples; [ ] = dose if it differs, or a comment.

SMILES	TRPML1 ag	ClpP mod	TRPV1 PAM	Menin-MLL FL inh	Sfp PPTase inh	TRPML1 inh	PINK1 modulator
CC(=O)c1sc(Nc2ccccn2)nc1C	2.5	-11.1%	0.9	3.7	-6.3%	22.6	-2.1%
COc1ccc(CNC(=O)CSCc2ccccc2Cl)cc1	0.7	-21.4%	?	.	-10.4%	45.5	0.6%
O=C1CC(c2ccc(O)c(O)c2)Oc2cc(O)cc(O)c21 (stereo not drawn)	.	-15.1%	15.5	1.8&3.7	-21.8%&-5.4%	.	-0.3%
CC(=O)Nc1cccc(CP(=O)(c2ccccc2)c2ccccc2)c1	0.3	31.6µM*	-5.0	4.9	15.9%	-3.4	-0.9%
Cc1ccc(OCCNC(=O)c2cccc(C)c2)cc1	-1.6	0.6%	-24.9	1.2	16.0%	8.7	-0.6%
CCCCN(C1CCS(=O)(=O)C1)S(=O)(=O)c1cccs1 (stereo not drawn)	-0.5	.	0.7	.	.	-0.2	5.8%
Cc1ccccc1-c1nc2c(c(SCc3cccc(Cl)c3)n1)Cc1c(CO)cnc(C)c1O2	0.8	-0.4%	.	.	.	12.8	-0.6%
NS(=O)(=O)c1cccc(NC(=O)Nc2ccc(Cl)cc2)c1	-1.0	.	12.0	-1.2	14.2%	7.9	-0.1%
O=C(CC(=O)c1cccnc1)c1ccccc1	-0.8	.	.	.	.	-10.9	0.2%
Cc1cc(Cl)ccc1NNC(=O)c1snnc1C	0.3	0.5%	-1.1	-1.2	3.9%	-2.1	4.0%
Cc1occc(=O)c1OCc1ccc(Cl)cc1Cl	1.6	-8.3%	-5.0	-7.0	12.6%	5.5	1.1%
COc1ccc(-c2cc(-c3ccccc3)nc(SC(C)C(=O)O)c2C#N)cc1 (stereo not drawn)	0.9	1.0%	?	6.3	-27.1%	23.9	-1.7%
CC(C)(C)c1ccc(OCC(=O)Nc2ccc(-c3nc4cccnc4o3)cc2)cc1	1.0	12.6µM*	-25.2	-1.5	3.6%	-19.8	1.4%
C/C(Cl)=C\Cn1c(NCCc2ccccc2)nc2c1c(=O)n(C)c(=O)n2C	0.7	1.1%	-13.5	0.7	-12.3%	13.6	0.6%[38.3 µM]
COc1ccccc1-n1nnnc1SCC(=O)N(C)C1CCS(=O)(=O)C1 (stereo not drawn)	-0.5	0.7%	5.3	.	.	2.6	0.4%
O=C(NC(=S)Nc1ccc(CN2CCOCC2)cc1)c1cc2ccccc2o1	0.9	-0.1%	-1.7	3.3	-1.8%	-29.0	11.2%
COc1cc(OC)c(NC(=O)c2ccc3nc(C(C)C)oc3c2)cc1Cl	2.6	4.3%	.	.	.	-17.0	0.2%
c1ccc2sc(Nc3nc4cc5c(cc4s3)OCO5)nc2c1	0.0	?	-12.1	-8.6	?	6.5	1.3%
O=C(NC(=S)N1CCc2ccccc21)c1ccccc1Cl	0.1	.	20.5	0.0	35.0%[activator]	7.8	1.5%
COc1ccc(S(=O)(=O)N2CC(C)N(C(=O)N(C)C)C2C(C)C)cc1 (stereo not drawn)	-0.9	-0.3%	-10.4	-3.1	4.9%	-11.1	2.9%
CCCNC(=S)N1CCN(c2nc(C)nc3sc4c(c23)CCCC4)CC1	0.7	.	-9.3	-2.5	7.2%	40.8	0.2%
Cc1ccc(S(=O)(=O)N2CCOCC2)cc1NC(=O)COC(=O)Cc1ccsc1	-0.3	.	0.2	1.7	6.6%	-3.7	5.8%
CC1(C)CC(=O)c2cc(C(=O)NC3CCSC3=O)c(=O)n(-c3ccccc3)c2C1 (stereo not drawn)	-0.2	25.1µM*	-2.7	4.6	1.0%	-0.4	4.4%
Cc1ccc(CN2CCN(Cc3ccc4c(c3)OCCO4)CC2CCO)cc1 (stereo not drawn)	0.4	0.9%	12.1	?	0.5%	-13.9	-0.1%
COc1ccc(-n2c(N)c(C(=O)NCC3CCCO3)sc2=S)cc1 (stereo not drawn)	0.1	0.1%	-2.9	3.0	-18.9%	8.2	1.7%[38.3 µM]

New compounds follow
SMILES	TRPML1 ag	ClpP mod	TRPV1 PAM	Menin-MLL FL inh	Sfp PPTase inh	TRPML1 inh	PINK1 modulator
CC1=C(C(=O)N2CCOCC2)CC(CC(=O)NCc2cccc3ccccc23)C(=O)N1Cc1ccccc1 (stereo not drawn)	-0.6	0.0%	.	.	.	28.0	1.5%
Cc1ccc2oc(C(=O)N(Cc3ccccc3F)C3CCS(=O)(=O)C3)c(C)c2c1 (stereo not drawn)	2.6	-3.6%	.	.	.	-14.8	-1.9%
COc1ccc(C2C(C(=O)O)c3ccccc3C(=O)N2C)cc1Br (stereo not drawn)	-0.7	1.5%	1.1	1.8	3.9%	-2.4	0.1%
C=CCn1cccc(C(=O)Nc2ccc(C)c(Cl)c2)c1=O	-1.2	0.5%	-5.3	0.0	3.5%	-4.8	2.6%
COc1ccccc1Nc1ncc2c(n1)CCN(Cc1ccc(C)s1)C2	0.9	-1.4%	.	.	.	-29.1	1.1%
Cc1ccc(-c2noc(-c3nnn(-c4cccc(C(F)(F)F)c4)c3N)n2)cc1	3.1	2.0%	.	.	.	35.2	0.0%
COc1ccc(Cl)cc1NC(=S)NC(=O)c1ccc2c(c1)OCO2	0.7	1.8%	.	.	.	6.8	4.9%
COc1ccc(-c2cc3c(=O)n(CC(=O)NCc4cccnc4)nc(C)n3n2)cc1	1.1	.	-3.3	1.8	9.6%	24.0	0.7%
O=C(/C=C/c1ccccc1)C1C(=O)c2ccccc2C1=O	-0.8	-2.2%	4.4	4.6	7.3%	1.2	-0.9%
N#CC1(NC(=O)COC(=O)/C=C/c2ccc3ccccc3n2)CCCCC1	-0.8	-6.7%	-13.1	.	18.3%	-1.8	-0.4%
CCC1(c2ccccc2)NC(=O)N(CC(=O)Nc2cc(Cl)ccc2N2CCN(C)CC2)C1=O (stereo not drawn)	0.2	-0.6%	3.7	.	.	1.5	-0.8%
Cc1cc(C)n(-c2ccc(C(=O)NCc3cccs3)cc2)n1	0.4	0.0%	4.8	1.3	10.5%	13.3	-3.2%
COc1nc(Nc2cccc(F)c2)nc(OC)n1	-0.4	1.1%	-1.1	0.9	18.9%	1.2	-1.8%
CC1(C)CC(=O)C(N=Nc2cc(C(F)(F)F)ccc2Cl)=C(O)C1	0.0	0.6%	-4.4	-1.9	3.9%	-17.3	7.1%
CCCCOc1ccc(OCCSc2nc3ccccc3n2CC(=O)O)cc1	.	0.0%	18.4	-0.6	?	.	-0.6%
CCOC(=O)c1c(-c2cc(OC)c(OC)c(OC)c2)csc1N	0.5	-0.2%	.	.	.	16.5	12.4%
O=C(CSc1ncccn1)N/N=C/c1cccs1	1.0	-2.5%	6.8	4.3	4.0%	4.3	2.4%[38.3 µM]
O=C(NCCCN1CCOCC1)C(=O)N/N=C/c1cccc2ccccc12	1.7	.	2.8	2.5	12.6%	8.8	-0.6%
CCOc1ccc(NC(=O)CN(C)C(=O)c2cc([N+](=O)[O-])ccc2N2CCOCC2)cc1OCC	0.3	-1.6%	7.6	.	.	10.9	2.5%
CCOc1ccc(C2c3c(oc4cc(C)c(C)cc4c3=O)C(=O)N2CCCN(C)C)cc1OC (stereo not drawn)	0.0	-7.1%	.	-0.7	-14.9%	-7.4	1.3%
CCc1ccccc1NC(=O)N1CC(C)Sc2ccccc21 (stereo not drawn)	0.5	-1.3%	.	.	.	5.9	-0.1%
COc1ccc(NC(=O)c2ccc3c(c2)CCN3S(=O)(=O)c2ccccc2)cc1	-0.2&2.0	-9.9%&-15.8%	3.9	5.6	6.6%	8.8&21.0	2.3%&2.0%
Cc1ccc(NC(=S)Nc2cccnc2)c(S(=O)(=O)N2CCCCC2)c1	0.2	-4.8%	3.9	-3.4	-29.2%	-20.7	24.6%
COc1ccc(-c2nnc(SCC(=O)Nc3c(C)cccc3C)nc2-c2ccc(OC)cc2)cc1	2.1	-2.3%	.	.	.	5.7	4.2%
CN1C(=O)C(O)(CC(=O)/C=C/c2ccco2)c2cc(Br)ccc21 (stereo not drawn)	3.3	-1.5%	4.9	16.3	44.7µM*	9.4	1.5%

Continued.
SMILES	TRPML1 ag	ClpP mod	TRPV1 PAM	Menin-MLL FL inh	Sfp PPTase inh	TRPML1 inh	PINK1 modulator
O=C(Nc1cc(C(F)(F)F)ccc1N1CCOCC1)c1ccccc1	-0.1	5.0%	-15.7	0.5	-12.1%	-3.6	-1.1%
CCc1nc2c(OCc3ccc(OC(F)F)cc3)cccn2c1N(C)C(=O)c1ccco1	0.4	-2.2%	.	.	.	2.1	0.5%
CCOC(=O)C1=C(O)c2ccccc2C(=O)/C1=C\c1ccc(C)cc1	-0.3	0.0%	?	?	11.2µM*	-0.8	10.3%
COc1cccc(NC(=O)[C@H](Cc2ccccc2)NC(=O)[C@@H]2Cc3ccccc3CN2)c1	-0.6	0.7%	?	-1.5	2.2%	-11.8	-0.4%
CC(/C=C/C1(O)C(C)CC(=O)CC1(C)C)OC1OC(CO)C(O)C(O)C1O (stereo not drawn)	.	0.2%	8.6	-3.6	13.2%	.	0.9%
O=C1N[C@@H](Cc2cn(S(=O)(=O)c3ccccc3)c3ccccc23)C(=O)N[C@H]1Cc1ccccc1	-0.1	0.8%	.	.	.	9.6	1.6%
CN(C)CCCNc1ccc(-c2nn(C)c(=O)c3ccccc23)cc1[N+](=O)[O-]	-0.4	.	-16.0	-0.1	10.7%	-7.1	1.9%
CCOc1ccccc1/C=N/NC(=O)c1ccc(Cn2cc([N+](=O)[O-])cn2)o1	0.2	-5.8%	1.2	4.0	0.7%	7.5	-0.1%
CC(C)NC(=O)c1onc(CSc2ccncc2)c1C(=O)NC(C)C	-0.9	2.1%	.	.	.	18.7	-0.1%
CCN(c1ccccc1)S(=O)(=O)c1ccc(F)cc1C	5.2	0.7%	-32.5	-0.9	-0.3%	41.4	-1.1%
COc1cccc(-c2cn3nc(C)c(C)nc3n2)c1	0.1	-13.1%	-1.2	1.8	?	14.9	0.3%
CCN(CC)C(=O)c1cccc(-c2ccc(OC)cc2)c1	-0.3	-0.1%	29.0	-0.5	11.3%	8.0	.
O=C(N/C(=C/c1ccco1)C(=O)N1CCCCCC1)c1cccs1	1.2	-2.7%	.	7.1	-2.0%	-17.6	-19.6%[38.3 µM]
O=S(=O)(c1ccc(Cl)cc1)N1CCN(c2nc(-c3cccc(Br)c3)nc3ccccc23)CC1	-0.3	.	.	.	.	-3.6	-1.6%

From PubChem
